From PubChem
HIV Env fusion: inhibitors of HIV Env-mediated cell fusion; inhibition, % at 12.3 µM; hit rate 1.1% among 360,000; HeLa-JRFL Env/CEM21 cell fusion, luciferase;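 active = mean replicate inhibition score of at least 50 and every replicate individually at or above 50; inconclusive = only one of the two criteria met; inactive = mean below 50 and not all replicates reaching 50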;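 note: 0% = plate neutral controls and 100% = maraviroc near 300 nM; one replicate is shown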
Active calls of the source: *; ? = inconclusive; [ ] = remark or other dose. Some of the compounds tested, so the mix of outcomes need not match the whole.

#1 CC(C)NC(=O)Nc1ccc2c(c1)CC(=O)N([C@H](C)CO)C[C@@H](C)[C@@H](CN(C)CC1CC1)O2
  HIV Env fusion: -13[16.7 µM]

#2 CCC/C(=C1/c2ccccc2C(=O)N1c1ccccc1)c1ccc(C=O)o1
  HIV Env fusion: -55

#3 O=C(O)[C@H]1[C@H](CO)[C@H]2Cn3c(ccc(-c4ccccc4)c3=O)[C@H]2N1Cc1ccccc1F
  HIV Env fusion: 10[16.7 µM]

#4 C[C@@H]1CCn2cc(nn2)COC[C@@H](Cc2ccccc2)NC1=O
  HIV Env fusion: 13[16.7 µM]

#5 C[C@H]1CN([C@@H](C)CO)S(=O)(=O)c2ccc(-c3ccc(F)cc3)cc2O[C@H]1CN(C)Cc1ccccc1C(=O)O
  HIV Env fusion: -18[16.7 µM]

#6 O=C(C[C@@H]1C[C@@H]2c3cc(NC(=O)c4ccc5c(c4)OCO5)ccc3O[C@@H]2[C@H](CO)O1)NCc1ccc(Oc2ccccc2)cc1
  HIV Env fusion: -37[16.7 µM]

#7 CCCC(=O)Nc1ccc2c(c1)OC[C@@H](C)N(C(=O)CN(C)C)C[C@H](C)[C@@H](OC)CN(C)C2=O
  HIV Env fusion: 59*[16.7 µM]

#8 COCC(=O)N1C[C@@H](C)[C@H](OC)CN(C)C(=O)c2cc(NC(=O)C3CCC3)ccc2OC[C@H]1C
  HIV Env fusion: 2[16.7 µM]

#9 CN1[C@H](C(=O)N2CCc3ccccc3C2)[C@@H](CO)[C@@H]2Cn3c(ccc(-c4ccccc4)c3=O)[C@@H]21
  HIV Env fusion: -58[16.7 µM]

#10 CC(C)NC(=O)Nc1ccc2c(c1)C(=O)N([C@H](C)CO)C[C@H](C)[C@H](CN(C)C(=O)Nc1ccccc1)OCCCC[C@@H](C)O2
  HIV Env fusion: 3[16.7 µM]

#11 Cc1ccc(S(=O)(=O)Nc2ccc3c(c2)CC(=O)N([C@H](C)CO)C[C@H](C)[C@H](CN(C)Cc2ccc(C(=O)O)cc2)O3)cc1
  HIV Env fusion: -4[16.7 µM]

#12 COCC(=O)Nc1ccc2c(c1)[C@H]1C[C@H](CC(=O)N[C@@H](C)c3ccccc3)O[C@H](CO)[C@H]1O2
  HIV Env fusion: 8[16.7 µM]

#13 Nc1ccn([C@@H]2O[C@H](C(=O)N[C@H](Cc3ccccc3)C(=O)N3CCSC3)[C@@H](O)[C@H]2O)c(=O)n1
  HIV Env fusion: 9

#14 COCCNC(=O)C[C@@H]1CC[C@@H]2[C@@H](COc3ccc(NC(=O)Cc4ccccc4)cc3C(=O)N2C)O1
  HIV Env fusion: -6[16.7 µM]

#15 COC(=O)c1cc2c(c3c4ccccc4n(S(=O)(=O)c4ccc(OC)cc4)c13)C(=O)N(Cc1ccc(N(C)C)cc1)C2
  HIV Env fusion: -12

#16 CO[C@@H]1CN(C)C(=O)c2ccc(NS(=O)(=O)c3cccc(Cl)c3)cc2OC[C@@H](C)NC[C@H]1C
  HIV Env fusion: 1[16.7 µM]

#17 O=C(N[C@H](C(=O)N1CCC[C@H]1C(=O)NC1CCCC1)C1CCCCC1)c1cccs1
  HIV Env fusion: -2

#18 CO[C@H]1CN(C)C(=O)c2cc(NC(C)=O)ccc2OC[C@H](C)N(S(=O)(=O)c2cn(C)cn2)C[C@H]1C
  HIV Env fusion: 47[16.7 µM]

#19 CC=Cc1ccc2n(c1=O)C[C@H]1[C@H](CO)[C@@H](C(=O)NCC)N(C(=O)CC3CC3)[C@@H]21 (mixture of isomers)
  HIV Env fusion: 5[16.7 µM]

#20 COc1ccc(NC(=O)Nc2ccc3c(c2)CC(=O)N([C@H](C)CO)C[C@@H](C)[C@@H](CN(C)S(=O)(=O)c2ccccc2)O3)cc1
  HIV Env fusion: -5[16.7 µM]

#21 C[C@H]1CN([C@@H](C)CO)C(=O)c2ccccc2-c2ccccc2CO[C@H]1CN(C)Cc1cccc(C(=O)O)c1
  HIV Env fusion: -20[16.7 µM]

#22 CCOC(=O)C1=C(C(=O)OCC)C2N(Cc3ccc(C(F)(F)F)cc3)c3ccccc3[C@@]23C[C@@H](C(=O)OC)N(S(=O)(=O)c2cccs2)C3=N1 (stereo partly drawn)
  HIV Env fusion: ?

#23 C[C@@H]1CN([C@@H](C)CO)C(=O)Cc2cc(NS(=O)(=O)c3cccs3)ccc2O[C@@H]1CN(C)S(=O)(=O)c1cccs1
  HIV Env fusion: 16[16.7 µM]

#24 CCS(=O)(=O)Nc1ccc2c(c1)C(=O)N(C)C[C@@H](OC)[C@H](C)CN(C)[C@@H](C)CO2
  HIV Env fusion: -17[16.7 µM]

#25 C[C@H]1CN([C@@H](C)CO)C(=O)c2cc(N(C)C)ccc2O[C@H]1CN(C)C(=O)NC1CCCCC1
  HIV Env fusion: 3[16.7 µM]

Sorted by value in HIV Env fusion (descending): four of the compounds above
#13 Nc1ccn([C@@H]2O[C@H](C(=O)N[C@H](Cc3ccccc3)C(=O)N3CCSC3)[C@@H](O)[C@H]2O)c(=O)n1
  HIV Env fusion: 9

#17 O=C(N[C@H](C(=O)N1CCC[C@H]1C(=O)NC1CCCC1)C1CCCCC1)c1cccs1
  HIV Env fusion: -2

#15 COC(=O)c1cc2c(c3c4ccccc4n(S(=O)(=O)c4ccc(OC)cc4)c13)C(=O)N(Cc1ccc(N(C)C)cc1)C2
  HIV Env fusion: -12

#2 CCC/C(=C1/c2ccccc2C(=O)N1c1ccccc1)c1ccc(C=O)o1
  HIV Env fusion: -55

Next compounds follow:
#26 COc1cccc(C(=O)Nc2ccc3c(c2)C(=O)N(C)C[C@H](OC)[C@H](C)CN(CCc2ccccc2)[C@H](C)CO3)c1
  HIV Env fusion: -6[16.7 µM]

#27 CNC[C@@H]1Oc2cc(C#Cc3ccncc3)ccc2S(=O)(=O)N([C@H](C)CO)C[C@@H]1C
  HIV Env fusion: -10[16.7 µM]

#28 CO[C@H]1CN(C)C(=O)c2cc(NS(=O)(=O)c3cccc(F)c3)ccc2OC[C@H](C)NC[C@@H]1C
  HIV Env fusion: 8[16.7 µM]

#29 CNC[C@@H]1OCCCC[C@H](C)Oc2ccc(NC(=O)Nc3ccc(OC)cc3)cc2C(=O)N([C@@H](C)CO)C[C@H]1C
  HIV Env fusion: 1[16.7 µM]

#30 Cc1ccccc1-c1cnc2c(c1)C(=O)N([C@H](C)CO)C[C@@H](C)[C@H](CN(C)C(=O)CC1CC1)O2
  HIV Env fusion: -25[16.7 µM]

#31 C[C@@H]1CCn2cc(nn2)COC[C@H](c2ccccc2)NC1=O
  HIV Env fusion: 9[16.7 µM]

#32 Nc1[nH]c(C(=O)c2ccccc2)c(-c2ccc3c(c2)OCO3)c1C(=O)NCCc1c[nH]c2ccccc12
  HIV Env fusion: -5

#33 C[C@H]1[C@@H](c2ccccc2)Oc2ccc(Cl)cc2S(=O)(=O)N1Cc1ccc(Cl)cc1
  HIV Env fusion: 0

#34 C/C=C/c1cnc2c(c1)C(=O)N([C@H](C)CO)C[C@H](C)[C@H](CN(C)C(=O)Nc1ccc(F)cc1)O2
  HIV Env fusion: -33[16.7 µM]

#35 CN1C(=O)c2cc(NC(=O)c3ccc(Cl)cc3)ccc2OC[C@@H]2O[C@@H](CC(=O)O)CC[C@H]21
  HIV Env fusion: -2[16.7 µM]

#36 C[C@@H]1C=CCCO[C@]12C(=O)N(CC1CC1)c1cccc(Br)c12
  HIV Env fusion: 31

#37 COc1ccc(Sc2cccc3c2S(=O)(=O)N(C2CC2)C[C@@H](COCc2ccccc2)O3)cc1OC
  HIV Env fusion: 17

#38 Cc1ccc(C(=O)N2O[C@]34C=C[C@]25C[C@@H](O)CC[C@]5(C)C3CC[C@]2(C)[C@@H]([C@H](C)/C=C/[C@H](C)C(C)C)CC[C@H]24)cc1 (stereo partly drawn)
  HIV Env fusion: -1

#39 O=C1NC(Cc2ccccc2)c2nc3ccc(F)cc3c(=O)n2-c2cc(Cl)ccc21 (stereo not drawn)
  HIV Env fusion: 26

#40 CC(C)c1cccc(NC(=O)C[C@H]2CC[C@H]3[C@@H](COc4ccc(NC(=O)c5cnccn5)cc4C(=O)N3C)O2)c1
  HIV Env fusion: 1[16.7 µM]

#41 CCN1CCN(c2c(S(=O)(=O)c3ccc(Cl)cc3)cnc3ccccc23)CC1
  HIV Env fusion: 4

#42 CN1C(=O)c2cc(NS(C)(=O)=O)ccc2OC[C@@H]2O[C@H](CC(=O)N3CCOCC3)CC[C@@H]21
  HIV Env fusion: -5[16.7 µM]

#43 C[C@@H]1CN([C@H](C)CO)C(=O)c2cc(NS(=O)(=O)c3ccc(Cl)cc3)ccc2O[C@@H]1CN(C)C(=O)Nc1ccc(C(F)(F)F)cc1
  HIV Env fusion: -3[16.7 µM]

#44 CO[C@H]1CN(C)C(=O)c2cc(NC(=O)Nc3cccc(F)c3)ccc2OC[C@@H](C)N(C(=O)C2CC2)C[C@@H]1C
  HIV Env fusion: 15[16.7 µM]

#45 COC(=O)[C@]12C[C@H](CC(=O)NCc3cccc4ccccc34)C(=O)N(Cc3ccccc3)C1=C[C@H](C1CCCC1)O[C@@H]2C
  HIV Env fusion: 19

#46 CO[C@H]1CN(C)C(=O)c2cc(C#N)ccc2OC[C@@H]2O[C@@H](CC[C@H]2OC)CCN(C)C(=O)[C@@H]1C
  HIV Env fusion: -17[16.7 µM]

#47 C=CCOC(=O)C(=O)/C=C/c1ccc(OC)cc1
  HIV Env fusion: 6[16.7 µM]

#48 O=C(NCCc1ccc(Cl)cc1)c1ccc2c(=O)[nH]c3c(C(=O)NCC4CCCO4)sc(=S)n3c2c1 (stereo not drawn)
  HIV Env fusion: 14

#49 C[C@@H]1CN([C@@H](C)CO)C(=O)c2cc(NC(=O)C3CCCCC3)ccc2O[C@@H](C)CCCCO[C@H]1CN(C)C(=O)c1ccncc1
  HIV Env fusion: 3[16.7 µM]

#50 COCCCNC(=O)C[C@@H]1C[C@@]2(C(=O)OC)CCCCC=C2N(Cc2ccccc2)C1=O
  HIV Env fusion: -5

Reformatted as a markdown table: entries from further up.
| cpd | SMILES | HIV Env fusion |
| --- | --- | --- |
| 41 | CCN1CCN(c2c(S(=O)(=O)c3ccc(Cl)cc3)cnc3ccccc23)CC1 | 4 |
| 42 | CN1C(=O)c2cc(NS(C)(=O)=O)ccc2OC[C@@H]2O[C@H](CC(=O)N3CCOCC3)CC[C@@H]21 | -5[16.7 µM] |
| 43 | C[C@@H]1CN([C@H](C)CO)C(=O)c2cc(NS(=O)(=O)c3ccc(Cl)cc3)ccc2O[C@@H]1CN(C)C(=O)Nc1ccc(C(F)(F)F)cc1 | -3[16.7 µM] |

Continuation:
#51 C[C@@H]1CN([C@H](C)CO)C(=O)c2cc(NS(=O)(=O)c3ccccc3)ccc2O[C@H]1CN(C)C
  HIV Env fusion: -9[16.7 µM]

#52 O=S(=O)(c1cccs1)N1CCCc2nc(-c3ccc(F)cc3)ccc21
  HIV Env fusion: -26

#53 CO[C@@H]1CC[C@H]2CCOc3ccc(C#N)cc3C(=O)N(C)C[C@@H](OC)[C@H](C)C(=O)N(C)C[C@@H]1O2
  HIV Env fusion: 17[16.7 µM]

#54 C[C@@H]1CN([C@H](C)CO)C(=O)Cc2cc(NC(=O)Nc3ccc4c(c3)OCO4)ccc2O[C@H]1CN(C)S(=O)(=O)c1ccccc1
  HIV Env fusion: -16[16.7 µM]

#55 COc1cccc(-c2ccc3n(c2=O)C[C@H]2[C@H](CO)[C@@H](C(=O)N(C)C)N(C(=O)C4CC4)[C@@H]32)c1
  HIV Env fusion: 20[16.7 µM]

#56 CC=Cc1ccc2n(c1=O)C[C@@H]1[C@@H](CO)[C@H](C(=O)NCC3CC3)[C@H]2N1Cc1ccccc1OC (mixture of isomers)
  HIV Env fusion: -1[16.7 µM]

A second format for part of the listing above:
entry | structure | HIV Env fusion
21 | C[C@H]1CN([C@@H](C)CO)C(=O)c2ccccc2-c2ccccc2CO[C@H]1CN(C)Cc1cccc(C(=O)O)c1 | -20[16.7 µM]
22 | CCOC(=O)C1=C(C(=O)OCC)C2N(Cc3ccc(C(F)(F)F)cc3)c3ccccc3[C@@]23C[C@@H](C(=O)OC)N(S(=O)(=O)c2cccs2)C3=N1 (stereo partly drawn) | ?
23 | C[C@@H]1CN([C@@H](C)CO)C(=O)Cc2cc(NS(=O)(=O)c3cccs3)ccc2O[C@@H]1CN(C)S(=O)(=O)c1cccs1 | 16[16.7 µM]
24 | CCS(=O)(=O)Nc1ccc2c(c1)C(=O)N(C)C[C@@H](OC)[C@H](C)CN(C)[C@@H](C)CO2 | -17[16.7 µM]
25 | C[C@H]1CN([C@@H](C)CO)C(=O)c2cc(N(C)C)ccc2O[C@H]1CN(C)C(=O)NC1CCCCC1 | 3[16.7 µM]
26 | COc1cccc(C(=O)Nc2ccc3c(c2)C(=O)N(C)C[C@H](OC)[C@H](C)CN(CCc2ccccc2)[C@H](C)CO3)c1 | -6[16.7 µM]
